High-throughput results (PubChem)
NS1 inh – qHTS Assay for Inhibitors of Influenza NS1 Protein Function. S. cerevisiae slowed by influenza A NS1, growth recovery by OD600. Potency, µM (doses to about 46.1 µM), without a hit: at the highest dose activity, positive = more growth. actives 0.4% (n = 270,000); note: actives are rising curves; nearly all actives have a fitted effect of over 50% in size
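Growth recovery, yeast-based: influenza A NS1 expressed in S. cerevisiae causes slow growth, and suppressors are detected by OD600. The parent strain without NS1 is used as positive control.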
Cruzain inh noDet – qHTS Assay for Promiscuous and Specific Inhibitors of Cruzain (without detergent). Cruzipain (Trypanosoma cruzi), P25779. purified cruzain, Z-FR-AMC fluorescence, no detergent. Potency, µM, for the others: max response, negative = inhibition, most hits filed as inhibitors. actives 2.3% (n = 200,000). AID 1476, 2009; active = well fitted curve in the direction sought with a large enough effect; inconclusive = small, poorly fitted or top-dose-only effect, or another doubt; inactive = no such curve, though single readings can be large; an effect the other way counts as inactive or inconclusive;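 note: plate controls were enzyme without inhibitor for no effect and buffer without enzyme for full effect; nearly all actives have a fitted effect of over 40% in size; top concentration of the series not given in the record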
Target sequence (P25779 123-467 limits assumed): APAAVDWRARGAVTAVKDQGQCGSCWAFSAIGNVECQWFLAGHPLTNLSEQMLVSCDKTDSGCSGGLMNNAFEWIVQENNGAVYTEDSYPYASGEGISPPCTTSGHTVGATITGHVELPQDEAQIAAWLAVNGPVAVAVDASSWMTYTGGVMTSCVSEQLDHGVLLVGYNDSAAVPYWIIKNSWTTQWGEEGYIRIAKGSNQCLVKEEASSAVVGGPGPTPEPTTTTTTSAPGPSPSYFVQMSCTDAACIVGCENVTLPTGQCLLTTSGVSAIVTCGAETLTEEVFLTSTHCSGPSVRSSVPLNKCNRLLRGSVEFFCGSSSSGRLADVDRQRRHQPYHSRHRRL
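Detergent-free condition (0.00005% Triton X-100) in acetate buffer pH 5.5 with DTT. 1.5 nM enzyme and compound were pre-mixed 15 min, then 2 uM Z-FR-AMC substrate added; reaction progress from fluorescence change between first and third reads (60 s).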
RE007 growth inh – qHTS Assay for Inhibitors of the HIV-1 protein Vpr | Potency, µM (highest dose often 92.2 µM), inactives show at the highest dose activity change, negative = less growth | AID 651644, 2012 | actives 0.21% (n = 360,000) | S. pombe RE007 Vpr strain, BacTiter-Glo ATP luminescence, 24 h; control for the full effect not named in the record; active = well fitted falling curve with a large enough effect; inconclusive = small, poorly fitted or top-dose-only effect; inactive = no such curve, though single readings can be large or run the other way;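 note: % is set by controls: 0 for no effect and ±100 for the full control effect; nearly all actives have a fitted effect of over 50% in size; the assay follows cell death caused by Vpr and the record does not say whether a fall means rescue or toxicity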
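Fission yeast RE007 carrying one integrated HIV-1 vpr copy, seeded at OD 0.01 in PMG+AL medium with 23 nL pinned compound. Grown 24 h at 30 degrees; viability read by BacTiter-Glo luminescence after 5 min.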
SARS PLP yeast – qHTS of Yeast-based Assay for SARS-CoV PLP | Potency, µM (doses to about 32.9 µM), for inactives: at the highest dose activity, positive = growth rescue | actives 0.19% (n = 330,000) | S. cerevisiae expressing SARS-CoV PLpro, growth rescue; control for the full effect not named in the record; note: 0% is about no effect; nearly all actives have a fitted effect of over 55% in size; growth read by luminescence after 48 h
Cruzain Triton – qHTS Assay for Promiscuous and Specific Inhibitors of Cruzain (with detergent); purified cruzain, Z-FR-AMC fluorescence, 0.01% Triton; Potency, µM, for the others: max response, negative = inhibition, usual class: inhibitors; actives 0.43% (n = 200,000); AID 1478, 2009; active = well fitted curve in the direction sought with a large enough effect; inconclusive = small, poorly fitted or top-dose-only effect, or another doubt; inactive = no such curve, though single readings can be large; an effect the other way counts as inactive or inconclusive;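 note: plate controls were neutral wells for no effect and buffer without enzyme for full effect; nearly all actives have a fitted effect of over 40% in size; top concentration of the series not given in the record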
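Z-FR-AMC hydrolysis (2 uM substrate) by cruzain (1.5 nM) monitored kinetically at ex 360/em 450 nm after 15 min room-temperature compound exposure; 0.01% Triton X-100, pH 5.5, 5 mM DTT.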
StopGo reporter – High Throughput Screening for Foot and Mouth Disease Virus Antivirals | human cells with a luciferase reporter of 2A StopGo recoding; control for the full effect not named in the record | actives 1.2% (n = 410,000) | Potency, µM (top dose mostly 57.9 µM), for inactives: at the highest dose signal change, negative = less light; active = well fitted falling curve with a large enough effect; inconclusive = small, poorly fitted or top-dose-only effect; inactive = no such curve, though single readings can be large or run the other way; tested in HEK293T cells; note: % is set by controls: 0 for no effect and ±100 for the full control effect; nearly all actives have a fitted effect of over 45% in size; luciferase light after 4 h
MARV entry inh – qHTS for inhibitors of binding or entry into cells for Marburg Virus | Marburg virus pseudotyped entry inhibition, cell reporter; control for the full effect not named in the record; about a third of the inactives were read at about 46 µM | actives 1.8% (n = 300,000) | AID 540276, 2011 | Potency, µM (highest dose often 37.8 µM), without a hit: top-dose activity change, negative = inhibition, most hits filed as inhibitors; active = well fitted inhibition curve with a large enough effect; inconclusive = small, poorly fitted or top-dose-only effect, or effect the other way; inactive = flat fitted curve, though single readings scatter; tested in HEK293 cells; about a fifth of its hits are not listed in these tables; note: % is set by controls: 0 for no effect and ±100 for the full control effect; luciferase read-out
LASV entry inh – qHTS for Inhibitors of binding or entry into cells for Lassa Virus; Potency, µM (top dose mostly 37.9 µM), for the others: at the top dose activity change, negative = inhibition, most hits filed as inhibitors; AID 540256, 2011; actives 1.2% (n = 300,000); Lassa virus pseudotype entry inhibition, cell reporter; control for the full effect not named in the record; active means well fitted inhibition curve with a large enough effect; inconclusive means small, poorly fitted or top-dose-only effect, or effect the other way; inactive means flat fitted curve, though single readings scatter; tested in HEK293 cells; note: % is set by controls: 0 for no effect and ±100 for the full control effect; nearly all actives have a fitted effect of over 50% in size; luciferase read-out
Active calls of the source: *; ? = inconclusive; · = not tested or not shown; & = joins results of further samples; [ ] = remark or other dose. Unless noted, calls come from the whole dose curve; as a rule, active means well fitted rising curve with a large enough effect; inconclusive means small, poorly fitted or top-dose-only effect; inactive means no such curve, though single readings can be large or run the other way. Potency is the fitted concentration of half-maximal effect.

SMILES	NS1 inh	Cruzain inh noDet	RE007 growth inh	SARS PLP yeast	Cruzain Triton	StopGo reporter	MARV entry inh	LASV entry inh
Cc1ccc(S(=O)(=O)N(C)C(=O)NC(=O)NS(=O)(=O)c2ccccc2)cc1	·	·	0%	0%	·	-5%	-5%[46.1 µM]	26%[46.1 µM]
O=c1c2[nH]c3ccccc3c2ncn1CCC1=CCCCC1	1%	?	14%	3%	2.1%	52%[activator]	?	4%
O=C(O)c1ccc(CN(Cc2ccccc2)S(=O)(=O)c2ccc(Cl)cc2)cc1	-19%	·	-8%	-3%	·	27%	11%[46.1 µM]	?
Cc1ccc(C(=O)NNC(=O)CCN2C(=O)C3CCCCC3C2=O)cc1 (stereo not drawn)	13%	-2%	-1%	4%	1.1%	-13%	?	-1%
COC(=O)C1=C(C)NC(C)=C(C(=O)OC)C1c1ccc(N(C)C)cc1	-7%	7%	19%	5%	-5.7%	-13%	-12%	1%
Cc1[nH]c(C)c(S(=O)(=O)Nc2cccc(Cl)c2C)c1C(=O)N1CCCCC1	-2%	·	-7%	6%	·	46%[activator]	-23%[46.1 µM]	5%[46.1 µM]
COc1cc2cc(CN(Cc3cccs3)C(=S)Nc3cccc(C)c3)c(=O)[nH]c2cc1OC	?	-5%	·	-1%	-7.0%	·	-6%	1%
Cc1ccc(-n2nc(C)c3c(C)cc(=O)n(CC(=O)Nc4cccc(C)c4C)c32)cc1	·	-5%	·	·	-1.0%	-21%	·	4%[46.1 µM]
c1ccc(-n2ncc3c2ncn2c(C4CCCCC4)nnc32)cc1	6%	-12%	·	5%	5.9%	·	·	·
CC1(C)CC(=O)C(C=NCCCN2CCOCC2)=C(O)C1	3%	-9%	0%	2%	-3.3%	6%	16%	20%
CN1CCN(S(=O)(=O)c2ccc(Oc3ccc(F)c(Cl)c3)nc2)CC1	-1%	·	-2%	-1%	·	-10%	7%[46.1 µM]	4%[46.1 µM]
CCN1CCN(C(c2cc3cc4c(cc3[nH]c2=O)OCO4)c2nnnn2C(C)(C)CC)CC1 (stereo not drawn)	1%	9%	-8%	1%	-4.0%	21%	-20%	-21%
Oc1c(C(c2ccc(Cl)cc2Cl)N2CCN(Cc3ccccc3)CC2)sc2nc(-c3ccco3)nn12 (stereo not drawn)	·	22%	·	·	-8.1%	-12%	·	20%[46.1 µM]
COc1cc(C(=O)NCC(=O)N/N=C(C)\C=C\c2ccccc2)cc(OC)c1OC	·	·	-9%	-1%	·	-5%	-23%[46.1 µM]	-11%[46.1 µM]
COc1cccc(/C=c2/s/c(=C(\C#N)C(=O)N3CCOCC3)n(-c3ccccc3)c2=O)c1	6%	-5%	-5%	-19%	5.4%	1%	6%	-8%
O=C(/C=C/c1ccccc1)N1CCN(CC(O)COc2ccccc2)CC1 (stereo not drawn)	-1%	2%	12%	4%	-1.8%	-11%	0%	20%
Cc1nn(C(=O)c2ccc(Br)cc2)c(C)c1Sc1ccccc1	·	-12%	·	·	-4.6%	0%	5%[46.1 µM]	-16%[46.1 µM]
CCc1ccccc1N1CC(c2nc3ccccc3n2CCOc2ccc(Cl)c(C)c2)CC1=O (stereo not drawn)	·	-14%	·	·	-8.2%	28µM*	?	?
CCCCN(CCCC)C(=O)C1(P(=O)(c2ccccc2)c2ccccc2)CCC1	-3%	·	-10%	-3%	·	18%	?	-12%
O=C1Nc2ccccc2C(O)(C(=O)NCc2ccc3c(c2)OCO3)N1c1ccccc1 (stereo not drawn)	-8%	-2%	0%	-1%	1.9%	5%	21%&21%[46.1 µM]	6%
CC1(C)CC(=O)c2c(O)cc(OCC(=O)N3CCN(c4ccccc4)CC3)cc2O1	-5%	·	9%	-10%	·	4%	·	·
COc1ccc(CC(C#N)(CO)c2nc3ccccc3[nH]2)cc1 (stereo not drawn)	0%	-1%	-6%	-11%	-0.8%	16%	?	-5%
Cc1ccc(C(=O)NCCc2nnc(SCC(=O)Nc3nc(-c4ccccc4)cs3)n2C)cc1	-4%	?	9%	6%	-5.8%	20%	?	?
CC(C)c1ccc(N(CCc2ccccn2)C(=O)C(C)(C)C)cc1	·	·	29%	·	·	?	?	-6%
O=C(CCC(=O)c1ccccc1)NC1CCCN(Cc2ccccc2F)C1 (stereo not drawn)	8%	·	-4%	-2%	·	-7%	9%[46.1 µM]	8%[46.1 µM]

Next part
SMILES	NS1 inh	Cruzain inh noDet	RE007 growth inh	SARS PLP yeast	Cruzain Triton	StopGo reporter	MARV entry inh	LASV entry inh
COc1cc2c(=O)n(CCc3ccccc3)c(=O)n(CC(=O)Nc3ccccc3)c2cc1OC	·	-2%	·	·	3.6%	-25%	7%[46.1 µM]	-6%[46.1 µM]
Cc1ccc2nc(C(C)O)[nH]c2c1 (stereo not drawn)	0%	-3%	4%	-11%	3.5%	11%	?	-25%
O=C(Nc1ccccc1)OCCNC(=O)c1ccccc1	-10%	0%	-25%	3%	0.5%	-13%	17%[46.1 µM]	20%
Cn1c(NC(=O)c2cccs2)cc(=O)n(C)c1=O	-3%	-13%	-6%	0%	-2.8%	-25%	·	·
O=C(C[n+]1cc(-c2ccc(F)cc2)n2c1CCC2)c1cccs1	1%	·	-21%	-2%	·	0%	16%[46.1 µM]	8%
COc1cc(C(=O)NC2=NCCS2)cc(OC)c1OC	4%	-3%	17%	-2%[6.58 µM]	3.6%	52%[activator]	?	5%
O=c1[nH]c(=S)[nH]c(O)c1N=Nc1ccc(S(=O)(=O)N2CCc3ccccc32)cc1	·	·	7%	-1%	·	-12%	-24%[46.1 µM]	-14%
COc1ccccc1CNc1nc(C)c(C(=O)N(C)C)s1	-1%	·	1%	21%	·	-1%	6%[46.1 µM]	?
CCCC(C)C(=O)OCC(=O)NCc1ccc(OC)c(OC)c1 (stereo not drawn)	·	·	33%	-3%	·	-11%	-8%[46.1 µM]	22%
Cc1cnc(NC(=O)COc2ccccc2)s1	-3%	8%	3%	1%	-2.5%	10%	?	?
CCOC(=O)/C(C#N)=C\C1=C(N2CCCC2)CC(C)(CC)OC1 (stereo not drawn)	4%	-2%	-19%	9%	-3.1%	12%	0%	7%
COc1ccc(NC(=O)CCCC2CCCCC2)cc1S(=O)(=O)N1CCCCC1	17%	?	·	8%	-7.5%	-25%	-15%	?
C/C(=N\NC(=O)c1ccoc1C)c1ccccc1	-1%	·	8%	-1%	·	51%[activator]	?	3%
CN(CC(=O)Nc1ccccc1[N+](=O)[O-])Cc1ccc(Br)cc1	·	·	2%	0%	·	-23%	-22%[46.1 µM]	22%
COc1ccc(Cc2nc(-c3ccc(-n4cccc4)cc3)no2)cc1	3%	-5%	-5%	8%	-4.2%	-9%	4%	2%
O=C(Cc1cccc2ccccc12)N/N=C/c1ccc(Sc2cccc3cccnc23)o1	21%	-2%	·	3%	3.1%	·	-1%	·
O=[N+]([O-])c1ccc(C2CNC(c3ccccc3)O2)cc1 (stereo not drawn)	18%	-4%	-2%	16%	-1.6%	-5%	6%	1%
CCC(C)[C@H](NC(=O)N1CC(=O)Nc2ccccc21)C(=O)N[C@H](Cc1ccccc1)C(=O)O (stereo partly drawn)	1%	·	-13%	-5%	·	-19%	·	·
Cc1cccc(C)c1NC(=O)CSCC(=O)c1ccc(O)c(O)c1	9%	-7%	38%	-7%	2.6%	-2%	3%&3%	1%
O=C(Cc1csc2ccccc12)NCc1ccccc1F	·	8%	·	·	-9.2%	39%[activator]	10%[46.1 µM]	?
CNC(=O)OCc1nc(SSC(C)(C)C)n(C)c1COC(=O)NC	·	·	-2%	·	·	35µM*	?	?
COc1cc(OC)cc(C(=O)NCC(=O)OCC(=O)N2c3ccccc3NC(=O)C2(C)C)c1	·	·	-4%	-4%	·	1%	6%[46.1 µM]	·
CCCCN(C(=O)c1oc2ccc(OCC)cc2c1C)c1c(N)n(CC(C)C)c(=O)[nH]c1=O	·	·	-17%	-4%	·	-5%	4%	-18%[46.1 µM]
COc1cccc(NC(=O)Cn2c(=O)n(-c3ccccc3)c(=O)c3oc4ccccc4c32)c1	1%	-5%	11%	-12%	-5.4%	-7%	?	?
O=C(N1CCN=C1SCc1cccnc1)C12CC3CC(CC(C3)C1)C2	10%	5%	-8%	4%	5.3%	?	?	?

Additional entries follow:
SMILES	NS1 inh	Cruzain inh noDet	RE007 growth inh	SARS PLP yeast	Cruzain Triton	StopGo reporter	MARV entry inh	LASV entry inh
CCOc1ccc(C(=O)NCC(=O)OCc2c(F)cccc2Cl)cc1OCC	-14%	6%	4%	?	0.5%	4%	19%	?
CC(C)CCN1CCN(Cc2cccc3nonc23)CC1CCO (stereo not drawn)	1%	·	-3%	0%	·	-9%	·	·
CCCOc1ccc(/C=C/C(=O)N2CCN(c3ccccn3)CC2)cc1	·	·	-17%	-1%	·	7%	2%	5%
O=C(NCCc1nnc2ccc(N3CCCC3)nn12)c1ccccc1	·	·	-10%	·	·	13%	?	-2%
O=c1[nH]c(-c2ccccn2)nc2sc(-c3ccccc3)cc12	·	·	?	-1%	·	-67%	?	2.2µM*
Cc1nc(=O)c(-c2ccccc2)c(C)n1CC1CCCO1 (stereo not drawn)	-1%	-2%	11%	0%	3.2%	5%	?	3%
Cc1csc(N/N=C/c2ccccc2F)n1	-21%	·	-16%	·	·	-5%	?	?
CS(=O)(=O)N1CCCC(C(=O)NCCCN2CCOCC2)C1 (stereo not drawn)	-2%	4%	10%	3%	3.4%	·	12%	12%
CC(=O)OCc1ccccc1Sc1ccccc1C(=O)NCc1ccccc1	0%	·	-10%	-2%	·	25%	4%&4%[46.1 µM]	5%
O=C(NCc1ccccc1)/C(=C/c1ccc(OC(F)F)cc1)c1ccccc1	-42%	-10%	-10%	-59%	-6.9%	-7%	0%	-9%
Cc1cc(=O)cc(C)n1-c1ccc(O)cc1	·	·	-2%	4%	·	4%	8%[46.1 µM]	-21%[46.1 µM]
O=C1Nc2ccccc2SC1c1ccccc1Cl (stereo not drawn)	·	·	12%	·	·	-16%	?	-16%[46.1 µM]
O=C(c1ccco1)N1CCN(S(=O)(=O)N2CCOCC2)CC1	5%	-4%	5%	1%	7.3%	·	?	6%
